# E coli growth: blocks Escherichia coli growth. OD600, 23 h; active compounds read low. hit rate 0.21% among 330,000. AID 1053175. OD600 absorbance (no concentration beside the values);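 active means OD600 absorbance below the run mean of sample wells minus 3.6 SD, in any replicate, cut at about 0.56 in these data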;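 further: stock transfer was 300 nL into about 60 µL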
# Numbers without * were called inactive; & = joins results of further samples. An excerpt; the hit share may differ from the screen's.
molecule | E coli growth
CCC1=C(OC(=O)N(CC)CC)N2C(=O)OC(=NCC(=O)OC)[C@]2(Cc2ccccc2)C2C1=CCC1C(=O)N(CC(=O)OC)C(=O)C12 (stereo not given in full) | 0.649
O=c1cc(-c2ccc(O)cc2)oc2c(C3OC(CO)C(O)C(O)C3O)c(O)cc(O)c12 (stereo not given) | 0.686
CCC(C)C(C(=O)N1CCNCC1)n1cc(C(N)CO)nn1 (stereo not given) | 0.663
CC(C)(C)OC(=O)CCC(C(=O)N1CCN(C(=O)OC(C)(C)C)CC1)n1cc(C(CO)NC(=O)OC(C)(C)C)nn1 (stereo not given) | 0.695
c1ccc(C2(CN3CCNCC3Cc3cccc4ccccc34)CC2)cc1 (stereo not given) | 0.65
CC(=CC=C(C#N)C#N)c1cc(C#N)c(N)o1 | 0.711
C#CCNC(=O)C1=CC(c2cn(C(C)=O)c3ccccc23)CC(OCc2ccc(CO)cc2)O1 (stereo not given) | 0.704&0.665
CCOC1OC(C(=O)N2CCN(Cc3ccccc3)CC2)=CC(C)C1CCCO (stereo not given) | 0.661
COc1ccc(C(O)=C2C(=O)C(=O)N(CCN(C)C)C2c2ccc(OC)c(OC)c2)c(C)c1 (stereo not given) | 0.706
COC(=O)C1CC1C(N)c1ccccc1 (stereo not given) | 0.693
C[C@@]12C(=O)Nc3ccc(Cl)cc3C(=O)N1C1c3cc(Cl)ccc3OCC1C2c1ccccc1 (stereo not given in full) | 0.705
CC=C(C)C(=O)NCCN1C2=NCC(Cc3ccc(O)cc3)N2CC1Cc1ccc(OC)cc1 (stereo not given) | 0.704
CCN1CC2C3C(=O)N(C)C(=O)C3[C@](CC)(C1=O)N2C(=O)c1ccc(C(C)(C)C)cc1 (stereo not given in full) | 0.648
O=C1CCCC=CCC(CC(=O)N(CCO)Cc2ccccc2)C(=O)NC(Cc2ccccc2)CO1 (stereo not given) | 0.694
CC(CSc1ccc(Br)cc1)CN1CCC(O)CCC1=O (stereo not given) | 0.665
CN1C(=O)C2C(C3CC3)N3C(=O)CN(CC4CC4)C(=O)[C@@]3(C)C2C1=O (stereo not given in full) | 0.691
Cc1ccc2sc(-c3ccc(NC(=O)C=CC(=O)O)cc3)nc2c1 | 0.656
C#CCOCCOCCOCCNc1nc(N2CCN(C(=O)C(CCCCN)n3cc(CN)nn3)CC2)nc(N2CCN(C(=O)C(CO)n3cc(C(N)C(C)C)nn3)CC2)n1 (stereo not given) | 0.647
CC(=O)NC1=NC(=O)C(=Cc2cc(C)n(-c3cccc(C(=O)O)c3)c2C)S1 | 0.7
CCC(C)C1CN(C(C)CN2CCCC2CN2C(N)=NCC2CC(C)C)C(=N)N1CCc1ccc(Cl)c(Cl)c1 (stereo not given) | 0.611
C[N+]1([O-])C2Cc3cc4c(cc3C1Cc1cc3c(cc12)OCO3)OCO4 (stereo not given) | 0.699
Cc1cccc(NC(=O)c2nc[nH]c2C(=O)NC(CC(C)C)C(=O)OC(C)(C)C)c1 (stereo not given) | 0.665
CC(C(=O)Nc1ccccc1N1CCOCC1)N1C(=O)C2CC=CCC2C1=O (stereo not given) | 0.685
C[C@@]12C(=O)Nc3cc(F)c(F)cc3C(=O)N1C1c3ccccc3OCC1C2c1ccccc1 (stereo not given in full) | 0.718

# Sorted by molecular weight (descending): part of the list above
molecule | E coli growth
O=C1CCCC=CCC(CC(=O)N(CCO)Cc2ccccc2)C(=O)NC(Cc2ccccc2)CO1 (stereo not given) | 0.694
CN1C(=O)C2C(C3CC3)N3C(=O)CN(CC4CC4)C(=O)[C@@]3(C)C2C1=O (stereo not given in full) | 0.691
Cc1ccc2sc(-c3ccc(NC(=O)C=CC(=O)O)cc3)nc2c1 | 0.656

# Additional entries follow.
molecule | E coli growth
O=C1CCCCC=CCC(CC(=O)N(CCO)Cc2ccccc2)C(=O)N2CCCC2CO1 (stereo not given) | 0.68
O=C(C=Cc1cccs1)Nc1ccc(N2CCOCC2)c(S(=O)(=O)Nc2ccccc2Cl)c1 | 0.713
O=C1CCC=CCC(CC(=O)N(CCO)Cc2ccccc2)C(=O)NCC(c2ccccc2)O1 (stereo not given) | 0.662
O=C(O)CC1SC(=NN=CC2CC=CCC2)NC1=O (stereo not given) | 0.706
CC(C)CC(NC(=O)c1[nH]cnc1C(=O)NC(Cc1ccccc1)C(=O)OC(C)(C)C)C(=O)OC(C)(C)C (stereo not given) | 0.711
CC1CC=CC2C1C(=O)N(Cc1ccccc1)C2c1ccc(-c2cc3ccccc3s2)cc1F (stereo not given) | 0.725
CC(=O)c1ccc(-c2ccc(C3C4C=CCC(C)C4C(=O)N3Cc3ccccc3)c(F)c2)cc1 (stereo not given) | 0.744
COC(=O)[C@@]12CCCCN1C(c1ccc(-c3cccc(Cl)c3)cc1)C1C(=O)N(C)C(=O)C12 (stereo not given in full) | 0.696&0.727
COc1ccc(C(=O)N2CC3(CC(c4cccc(NC(=O)CC(c5ccccc5)c5ccccc5)c4)=NO3)CC2C(N)=O)cc1 (stereo not given) | 0.691
CCOC1OC(C(=O)NC2CC2)=CC(c2ccc(C(F)(F)F)cc2)C1CCCO (stereo not given) | 0.677
COC1C(OC(N)=O)C(O)C(Oc2ccc3c(O)c(NC(=O)c4ccc(O)c(CC=C(C)C)c4)c(=O)oc3c2C)OC1(C)C (stereo not given) | 0.382*
CC(=NOC(=O)NC(C)C)c1sc(-c2ccccc2)nc1C | 0.674
O=C(NC(Cc1c[nH]c2ccccc12)C(=O)O)C(=Cc1ccco1)NC(=O)c1ccccc1 (stereo not given) | 0.698
COC(=O)C1=C(C)N(CC2CC2)C(=O)NC1c1ccccc1 (stereo not given) | 0.667
COC(=O)[C@@]1(Cc2ccc(OC)cc2)C2c3cc(C(=O)N(C)C)n(Cc4ccc(OC(F)(F)F)cc4)c3CC2CN1C(=O)c1ccccc1 (stereo not given in full) | 0.69
O=C(O)CC1c2cc(C(F)(F)F)ccc2S(=O)(=O)N1Cc1ccccc1 (stereo not given) | 0.668
CCC(C)C1COCCS(=O)(=O)N1Cc1ccc(Cl)cc1Cl (stereo not given) | 0.691
C#Cc1ccc(C2C=C(C(=O)O)OC(OCc3ccc(CO)cc3)C2)cc1 (stereo not given) | 0.682&0.708
COC(=O)c1cccc(C23CC4(C2)C(CN(C)C4c2ccccc2)C3c2ccc(C(F)(F)F)cc2)c1 (stereo not given) | 0.659
C#CCNC(=O)C1=CC(C2CCCCC2)CC(OCc2ccc(CO)cc2)O1 (stereo not given) | 0.709&0.654
CNC(=O)c1[nH]cnc1C(=O)NC(CC(C)C)C(=O)OCc1ccccc1 (stereo not given) | 0.674
CCC1=C(OC(=O)N(CC)CC)N2C(=O)OC(=NCCc3c[nH]c4ccccc34)[C@]2(C)C2C1=CCC1C(=O)N(CC(=O)OC)C(=O)C12 (stereo not given in full) | 0.699
Cn1c(NC(=O)C=Cc2ccccc2)cc(=O)n(C)c1=O | 0.685
CCCCCCCCCCCCN1C(CC(C)=O)c2cc(F)cc(F)c2S1(=O)=O (stereo not given) | 0.673
C1=CC2CCN(Cc3ccccc3)Cc3cccc(c32)C1 (stereo not given) | 0.66
C(=Cn1nnc2ccccc21)c1ccccn1 | 0.618
Cc1ccc(S(=O)(=O)N2C(c3cccc(Cl)c3)CC=C(C(=O)O)C2c2ccccc2)cc1 (stereo not given) | 0.653
C#Cc1ccc(C2C=C(C(=O)O)OC(OCC)C2CCCO)cc1 (stereo not given) | 0.702
COCC=CC1=CC2=CC(=O)C(C)(OC(=O)c3cnc4ccccc4n3)C(=O)C2=CN1C1CC1 (stereo not given) | 0.722
COC(=O)C1C[C@@]2(O)C(O)C(O)C(O)CC2N1Cc1ccc(C)s1 (stereo not given in full) | 0.692&0.674
CON=CNC(=O)NOCc1ccc(Cl)cc1Cl | 0.675
CC(C)(C)C1C=C(C(=O)Nc2ccccc2)OC(OCCCCO)C1 (stereo not given) | 0.622
COc1ccc(C2CC=C(C(=O)O)C(c3cccc(Cl)c3)N2S(=O)(=O)c2ccccc2C)cc1 (stereo not given) | 0.704
Cc1ccc(S(=O)(=O)N2C(c3ccc(Cl)cc3)CC=C(C(=O)O)C2c2cccc(Cl)c2)cc1 (stereo not given) | 0.688
C#CCOCCOCCOCCNc1nc(N2CCOCC2)nc(N2CCN(C(=O)CCCCCCCCCCNC(=O)C(CO)n3cc(CCCCCN)nn3)CC2)n1 (stereo not given) | 0.703
COc1ccc(S(=O)(=O)Nc2ccc3c(c2)C(=O)N(C(C)CO)CC(C)C(CN(C)S(=O)(=O)c2ccc(F)cc2)O3)cc1 (stereo not given) | 0.662
CC1CN(C(C)CO)C(=O)c2cc(NC(=O)C3CCCCC3)ccc2OC1CN(C)C(=O)Nc1ccc2c(c1)OCO2 (stereo not given) | 0.703
CC1CN(C(C)CO)C(=O)Cc2cc(NC(=O)Nc3ccccc3)ccc2OC1CN(C)C(=O)Nc1ccc2c(c1)OCO2 (stereo not given) | 0.603
COc1cc(C=CC(=O)O)cc(OC)c1O | 0.665
COC(=O)[C@]1(C)NC(c2ccc(-c3cccc(Cl)c3)c(OC)c2)C2C(=O)N(C)C(=O)C21 (stereo not given in full) | 0.705
COc1cc(CCCN2C(N)=NCC2Cc2ccccc2)cc(OC)c1OC (stereo not given) | 0.68
COC(=O)C1C[C@@]2(O)C(O)C(O)C(O)CC2N1Cc1ccc(C(C)(C)C)cc1 (stereo not given in full) | 0.674
O=C(NCc1ccccc1)C1=CC(C2CCCCC2)CC(OCCCCO)O1 (stereo not given) | 0.669
CC1CN(C(C)CO)C(=O)c2cc(NC(=O)C3CC3)ccc2OC1CN(C)C(=O)Nc1ccccc1 (stereo not given) | 0.66
CCCCN1CC(=O)N2C3c4cc(C)ccc4OCC3C(c3ccccc3)[C@]2(C)C1=O (stereo not given in full) | 0.691
C[C@@]12C(=O)N(Cc3ccccc3)CC(=O)N1C1c3cc(Cl)ccc3OCC1C2c1ccccc1 (stereo not given in full) | 0.718
C=C1CCN(C(Cc2ccccc2)C(=O)NCc2ccc(Cl)cc2)S(=O)(=O)c2ccccc21 (stereo not given) | 0.714
CN1CC2C3C(=O)N(Cc4ccccc4)C(=O)C3[C@](Cc3ccccc3)(C1=O)N2C(=O)c1ccc(F)cc1 (stereo not given in full) | 0.662

# Exported as labelled records: part of the list above
> CC1CN(C(C)CO)C(=O)Cc2cc(NC(=O)Nc3ccccc3)ccc2OC1CN(C)C(=O)Nc1ccc2c(c1)OCO2 (stereo not given)
  E coli growth: 0.603
> COc1cc(C=CC(=O)O)cc(OC)c1O
  E coli growth: 0.665
> COC(=O)[C@]1(C)NC(c2ccc(-c3cccc(Cl)c3)c(OC)c2)C2C(=O)N(C)C(=O)C21 (stereo not given in full)
  E coli growth: 0.705
> COc1cc(CCCN2C(N)=NCC2Cc2ccccc2)cc(OC)c1OC (stereo not given)
  E coli growth: 0.68

# Next part:
molecule | E coli growth
C=CC(=O)N1CC=CC(c2ccc(OC)cc2)N(Cc2ccc(F)cc2)C(=O)C1 (stereo not given) | 0.688
CC(C)CC(COc1ccccc1)N1CCN(C)CCC1=O (stereo not given) | 0.652
NCCCCC1CNC(=S)N1CCCCC1CCCCC1 (stereo not given) | 0.631
CC1OC(OC2C(COC3OC(CO)C(O)C(O)C3O)OC(OC3CC[C@]4(C)C(CC[C@@]5(C)C4CC=C4C6CC(C)(C)CC[C@]6(CO)C(O)C[C@]45C)C3(C)C)C(O)C2O)C(O)C(O)C1O (stereo not given in full) | 0.692
COc1c2c(cc3oc(COC4OC(CO)C(O)C(O)C4O)cc(=O)c13)OC(C(C)(C)O)C2 (stereo not given) | 0.684
CC(NC(=O)c1nc[nH]c1C(=O)N1CCN(c2ccccc2)CC1)c1ccccc1 (stereo not given) | 0.652&0.719
C=CCCC(Cc1ccc(F)cc1)C(=O)OCC(Cc1c[nH]c2ccccc12)NC(=O)C(CC=C)CC(=O)N(CCO)Cc1ccccc1 (stereo not given) | 0.647&0.729&0.757&0.744&0.72
Cc1ccc2c(c1)C1C(CO2)C(c2ccccc2)[C@]2(C)C(=O)Nc3ccc(Cl)cc3C(=O)N12 (stereo not given in full) | 0.67
CNCC(CC1CCCCC1)NCC(CO)NCC1(c2ccccc2)CC1 (stereo not given) | 0.679
CC=CC1=CC(=O)CC(c2ccc(OC)c(OC)c2)C1 (stereo not given) | 0.616
CCCC(=C1c2ccccc2C(=O)N1c1ccccc1)c1ccc2[nH]ccc2c1 | 0.73
Cc1ccc(O)c(C(CCN(C(C)C)C(C)C)c2ccccc2)c1 (stereo not given) | 0.694&0.693

# Already shown: entries from further up.
molecule | E coli growth
CCCC(=C1c2ccccc2C(=O)N1c1ccccc1)c1ccc2[nH]ccc2c1 | 0.73
Cc1ccc(O)c(C(CCN(C(C)C)C(C)C)c2ccccc2)c1 (stereo not given) | 0.694&0.693

# Carrying on.
molecule | E coli growth
CCCCCCCN1C(Nc2ccccc2)=NCC1C (stereo not given) | 0.673
C=CCOC(=O)C1=CC(C(C)(C)C)C(CCCO)C(OCC)O1 (stereo not given) | 0.719
NC(=O)C(=Cc1ccccc1)NC(=O)C=Cc1ccccc1 | 0.651
O=C(C=CNNC(=O)c1cccc(Br)c1)c1ccccc1 | 0.716
COc1ccc(C(=O)C=CNc2c(C)n(C)n(-c3ccccc3)c2=O)cc1OC | 0.7
CN1CCC(=O)N(C(CSc2ccccc2)Cc2ccccc2)CC1 (stereo not given) | 0.67
COc1ccc(C2CC(=O)C=C(c3ccc4c(c3)OCO4)C2)cc1OC (stereo not given) | 0.606
CCOC1OC(C(=O)Nc2ccccc2)=CC(C2CC2)C1CCCO (stereo not given) | 0.726&0.681
COC(=O)CC1c2ccccc2S(=O)(=O)N1c1cccc(OC)c1 (stereo not given) | 0.669
COC(=O)[C@@]1(Cc2ccc(F)cc2)C2c3cc(C(=O)N(C)C)n(Cc4ccc(OC)c(OC)c4)c3CC2CN1C(=O)c1ccccc1 (stereo not given in full) | 0.715
COc1cc(NS(=O)(=O)c2ccc(NC=CC(=O)c3ccc(OC)c(OC)c3)cc2)nc(OC)n1 | 0.68
COc1ccc(-c2oc(=O)c3cc(OC)c(OC)cc3c2C=Cc2cccc([N+](=O)[O-])c2)cc1 | 0.695
CC(C)C(N)C(=O)OCCOCn1cnc2c(=O)[nH]c(N)nc21 (stereo not given) | 0.715&0.684
CCN1C(=O)NC(c2cccc(C(F)(F)F)c2)C(C(C)=O)=C1C (stereo not given) | 0.682
